From PubChem BioAssay
GIV-Gai inh – GIV-Galpha-i interaction inhibition | AID 1224905 | Galpha-i3/FITC-GIV peptide fluorescence polarization, 90 min; active compounds read low; scaled: aluminum fluoride 0%, vehicle 100% | 0.42% of 210,000 active | percent of control (FP), % (test concentration not listed) | P08753;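 active = replicate mean at 85% of control or lower, very high polarization wells dropped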;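 note: lower values mean more displacement of the GIV peptide from Galpha-i3; wells of about 15 µL received 100 nL stock; the first replicate is given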
Target sequence (P08753 whole entry, looked up): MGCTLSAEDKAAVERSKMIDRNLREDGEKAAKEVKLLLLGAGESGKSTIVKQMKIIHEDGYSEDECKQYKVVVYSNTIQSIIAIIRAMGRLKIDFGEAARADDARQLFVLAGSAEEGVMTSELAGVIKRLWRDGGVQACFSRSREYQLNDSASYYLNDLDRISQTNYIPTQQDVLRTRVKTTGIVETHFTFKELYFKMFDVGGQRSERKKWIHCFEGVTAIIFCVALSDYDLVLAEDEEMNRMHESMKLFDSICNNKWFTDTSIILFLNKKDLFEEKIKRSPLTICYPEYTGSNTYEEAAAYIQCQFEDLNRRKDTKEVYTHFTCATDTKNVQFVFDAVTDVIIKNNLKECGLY
Sa growth inh – blocks Staphylococcus aureus growth | S. aureus RN4220 growth, OD600, 20 h, 42 °C; active compounds read low | relative growth, % (test concentration not listed) | 0.53% of 170,000 active | AID 720641;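 active = growth at 42 °C up to 50% and 20 or more points under that at 30 °C, or under 10% at both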;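 note: 300 nL library stock went into each well; scaled to the means of positive and negative controls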
HCMV NEC inh – cytomegalovirus nuclear egress complex inhibition | inhibition, % (concentration not given with the values) | HTRF UL50-UL53 interaction, normalized percent inhibition | 0.15% of 190,000 active;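 active = both replicates at 50% or more, plus weaker picks with an unusually low signal ratio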;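 note: stock transfer was 100 nL into about 20 µL; 0% = negative control wells and 100% = wells with untagged competitor protein; inactives centre near -12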
Sa growth inh second temp – also measured in Sa growth inh; calls as there; relative growth, %; measured here: growth at 30 °C;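 optical density after 20 h as mean of two plates; 100% = untreated growth and lower means inhibition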
* = called active by the depositor; x = no result given.

Start of the listing, in advance (six entries):
SMILES	GIV-Gai inh	Sa growth inh	Sa growth inh second temp	HCMV NEC inh
N=c1oc2ccc(Br)cc2cc1-c1nc2ccccc2[nH]1	x	100	81	-21
CC(Oc1ccccc1F)c1nnc(SCC(=O)c2ccc[nH]2)o1 (stereo unspecified)	x	99	83	-25
CC(=O)N1c2ccccc2C(=O)C1N1CCN(c2cccc(Cl)c2)CC1 (stereo unspecified)	103	105	71	x
Cn1c(CNC(=O)CSc2n[nH]c(-c3ccccc3)n2)nc2ccccc21	104	86	86	x
COCCCN1C(=O)c2[nH]nc(-c3ccccc3O)c2C1c1ccc(OC)cc1 (stereo unspecified)	101	97	72	6
CCN(C(=O)C(C)Oc1ccccc1)c1ccccc1C (stereo unspecified)	x	89	106	10

This part in full, from the first entry:
SMILES	GIV-Gai inh	Sa growth inh	Sa growth inh second temp	HCMV NEC inh
N=c1oc2ccc(Br)cc2cc1-c1nc2ccccc2[nH]1	x	100	81	-21
CC(Oc1ccccc1F)c1nnc(SCC(=O)c2ccc[nH]2)o1 (stereo unspecified)	x	99	83	-25
CC(=O)N1c2ccccc2C(=O)C1N1CCN(c2cccc(Cl)c2)CC1 (stereo unspecified)	103	105	71	x
Cn1c(CNC(=O)CSc2n[nH]c(-c3ccccc3)n2)nc2ccccc21	104	86	86	x
COCCCN1C(=O)c2[nH]nc(-c3ccccc3O)c2C1c1ccc(OC)cc1 (stereo unspecified)	101	97	72	6
CCN(C(=O)C(C)Oc1ccccc1)c1ccccc1C (stereo unspecified)	x	89	106	10
Cc1ccc(C(=O)Nc2ccccc2Sc2cc(C)nc3ncnn23)cc1	104	x	x	-12
CC(NC(=O)c1cccc(NC(=O)c2nsc3ccccc23)c1)c1ccccc1 (stereo unspecified)	114	106	93	x
O=C(COC(=O)Cn1cnc2ccccc21)NC1CCCCCC1	x	100	88	-7
Cn1c(SCC(=O)NCc2ccccc2)nc2c(sc(=S)n2-c2ccccc2)c1=O	107	x	x	-5
COc1cc2c(cc1NC(C)C(=O)N1CCCC1)oc1ccccc12 (stereo unspecified)	x	99	79	-41
COc1cc(NC(=O)Cn2nc(N3CCN(c4ccc(F)cc4)CC3)ccc2=O)cc(OC)c1	109	x	x	-18
CCOC(=O)c1cnc(S/C=C/C(=O)c2ccc(Cl)cc2)nc1N	103	89	94	8
COc1ccccc1NC(=O)Cc1noc(COC(=O)c2cc(OC)c(OC)cc2OC)n1	x	106	98	-13
COc1cc(OC)c(NC(=O)C2CC3CSCN3C23C(=O)Nc2ccccc23)cc1Cl (stereo unspecified)	107	x	x	-18
COc1cc(Br)cc(C=Nc2cccc(-c3nc4ccccc4o3)c2)c1O	107	120	86	x
COc1cc(/C=C2\C(=N)N3N=C(S(C)(=O)=O)SC3=NC2=O)ccc1OC(=O)c1ccco1	112	98	80	-56
CCN1C(=O)C(CC(=O)Nc2ccc(Br)cc2)N(CCNC(C)=O)C1=S (stereo unspecified)	104	110	79	x
Cc1ccc2c(cnn2C(=O)CCCC(=O)NCCc2ccc(Cl)cc2)c1	104	x	x	-10
CNC(=O)N1CCCC(c2cccc(C(=O)NCc3cccc(Br)c3)c2)C1 (stereo unspecified)	107	x	x	-20
O=C1OC(c2ccccc2)=C/C1=C/c1ccco1	135	53	38	26
Cc1cc(NC(=O)c2cc(C(C)(C)C)oc2C)nc(C)n1	108	109	84	4
Cc1ccc(CSCCC(=O)N2CCN(c3cc(C)ccc3C)CC2)cc1	106	100	106	x
CC(C)OC(=O)c1cccnc1SCc1cc(=O)n2ccccc2n1	100	119	84	x

At a glance, 4 of the compounds above:
SMILES	GIV-Gai inh	Sa growth inh	Sa growth inh second temp	HCMV NEC inh
CCOC(=O)c1cnc(S/C=C/C(=O)c2ccc(Cl)cc2)nc1N	103	89	94	8
COc1ccccc1NC(=O)Cc1noc(COC(=O)c2cc(OC)c(OC)cc2OC)n1	x	106	98	-13
COc1cc(OC)c(NC(=O)C2CC3CSCN3C23C(=O)Nc2ccccc23)cc1Cl (stereo unspecified)	107	x	x	-18
COc1cc(Br)cc(C=Nc2cccc(-c3nc4ccccc4o3)c2)c1O	107	120	86	x

New compounds follow:
SMILES	GIV-Gai inh	Sa growth inh	Sa growth inh second temp	HCMV NEC inh
Cc1ccc(C)c(S(=O)(=O)n2nc(C)c(S(=O)(=O)N3CCC(C)CC3)c2C)c1	101	75	84	x
N#CCCn1cc(/C=N/O)c(-c2ccc(Br)cc2)n1	107	108	95	-17
CC1CCN(c2c(-c3ccccc3)c(=O)c2=O)CC1	104	x	x	-74
Cn1cccc1C(=O)Nc1nccs1	x	96	86	-16
O=c1[nH]ccc2nc(N3CCOCC3)ncc12	104	98	87	-14
NNC(=O)CC1=Nn2c(nnc2-c2ccc(Cl)cc2)SC1	x	93	66	-10
c1ccc(-c2cccs2)cc1	121	105	95	x
CCOc1ccc(CCNC(=O)c2cccc3c2C(=O)N(Cc2cccnc2)C3)cc1OCC	93	105	76	-1
COC(=O)c1c(C)oc2ccc(O)c(CN3CCC(C)CC3)c12	102	x	x	-26
CCCn1c(N)c(C(=O)COC(=O)c2c3c(nc4ccccc24)CCC3)c(=O)[nH]c1=O	x	96	67	-17
COC(=O)c1scc2c(Oc3ccccc3)cc(C(F)(F)F)nc12	104	87	89	-5
COc1cc(/C=C/C(=O)Nc2ccc3nc(N4CCN(c5ncccn5)CC4)cc(C)c3c2)cc(OC)c1OC	102	88	56	-11
O=C1CCCN1c1ccc(CN2CC(=O)N(Cc3ccccc3)c3ccccc3S2(=O)=O)cc1	105	x	x	-36
CCNS(=O)(=O)c1ccc(NC(=O)c2ccc(Cn3cc(Br)cn3)o2)cc1	100	96	66	x
C=CCn1c(SCc2ccc(C(=O)NCCCO)cc2)nc2sc3c(c2c1=O)CCCC3	102	x	x	-25
Cc1ccc2cc(CCNC(=O)C(C)(C)C)c(=O)[nH]c2c1	104	89	89	-32
Cc1ccc(C)c(NC(=O)CSc2ncnc3nc(N4CCc5ccccc5C4)sc23)c1	101	x	x	-20
COC(=O)c1cnc(NCc2ccc(F)cc2)c2ccccc12	107	90	98	x
COc1ccc(-c2c3c(=O)n(C)c(=O)n(C)c3cn2-c2cccc(NC(C)=O)c2)cc1	106	97	85	x
O=c1[nH]c(SCc2ccc(F)cc2)nc2c(-c3ccccc3)c[nH]c12	106	x	x	-40
Cc1cc(C)c2nc(N3CCCC(C(=O)NC4CCCc5ccccc54)C3)sc2c1 (stereo unspecified)	106	130	90	x
COc1ccc(-c2nc3ccc4ccccc4c3c3c2CCC3)cc1	106	101	91	x
COc1ccc(CC(=O)Nc2sc3c(c2C(=O)Nc2ccc(C)cc2)CCCCC3)cc1	108	95	104	18
Cc1ccsc1/C=C1\SC(=N)N(c2ccc3c(c2)OCO3)C1=O	107	x	x	-12
Cc1ccc2cccc(NC(=O)c3ccccc3C)c2n1	109	x	x	12
COCc1cc(=O)[nH]c(COc2ccc(Cl)cc2)n1	98	106	84	-2
O=C(CN1CCN(C/C=C/c2ccccc2)CC1)Nc1ccc2c(c1)OCCCO2	x	97	91	-13
Fc1ccc(-c2noc(CSc3ccc(-c4ccccc4F)nn3)n2)cc1	101	x	x	-28
CC(C)(CO)NC(=O)c1cc(-c2ccc(F)cc2)no1	99	112	81	x
CCOC(=O)c1c(C)oc2c(Cl)cc(NS(=O)(=O)c3cccc([N+](=O)[O-])c3)cc12	113	x	x	-9
O=C(/C=C/c1ccco1)Nc1ccc2oc(-c3ccccc3)nc2c1	104	121	99	-1
O=C(Oc1ccc2c(=O)c(Oc3ccccc3Br)coc2c1)c1ccco1	101	x	x	-17
CCOC(=O)c1nn(-c2ccccc2)c2nc(Nc3ccc(C)cc3)cc(=O)n12	180	94	78	-28
Cc1nn(-c2cc(N3CCCC3)ncn2)c(C)c1CCC(=O)Nc1ccc(Cl)cc1	96	x	x	-8
CCOC(=O)c1sc2c(c1O)c(=O)n(-c1ccccc1)c(=S)n2-c1ccccc1	110	18	13	-46
c1ccc2sc(SCSc3nnc4sc5ccccc5n34)nc2c1	106	92	72	-25
CCN(c1ccccc1)S(=O)(=O)c1cc(-c2ccc(=O)n(-c3c(C)noc3C)n2)ccc1C	106	x	x	-38
Nc1nnc(CCC(=O)O)c(=O)n1N	x	97	92	-36
Cc1cccn2c3c(c(=O)nc12)C(c1cccc(F)c1)CC(=O)N3 (stereo unspecified)	104	90	92	-23
CCOc1cc2[nH]c(=S)n(CCCC(=O)O)c(=O)c2cc1OCC	109	78	85	x
COc1ccc(N2C(=O)c3cc4ccsc4n3CC2(C)C(=O)NC2CCCC2)cc1 (stereo unspecified)	106	x	x	-3
OCC1(CO)COC(COc2ccccc2)=N1	x	99	87	-14
O=c1n(-c2cccc(Cl)c2)c(=O)n(Cc2cccc(F)c2)n1Cc1cccc(F)c1	97	114	92	x
Cc1cccc(COc2cc(C)c3c(C)nn(C)c3n2)c1	101	x	x	10
Cc1cc(C)n(-c2ccc(COC(=O)Cc3n[nH]c(=O)c4ccccc34)cc2)n1	x	82	88	-26
Cc1ccc(Nc2nc(Nc3ccc(C)cc3)nc(Sc3nncn3C)n2)cc1	100	97	86	-29
CNC(=O)c1ccc(N)cc1	x	81	81	-17
Cc1ccc(C)c(NC(=O)COC(=O)CC2CC3CCC2C3)c1 (stereo unspecified)	x	111	99	8
Cc1ccc(-c2cnc3ccccc3n2)cc1N	x	102	85	-102
CCn1c(=O)n(-c2ccccc2)c(=O)c2cc3c(nc21)CC(C)(C)OC3	99	x	x	-38
COc1ccc(-c2ccc(NS(=O)(=O)c3ccc(C(C)=O)cc3)cc2)nn1	103	89	89	x
CCOC(=O)c1ccc(NC(=O)c2cn3c4c(ccc(Cl)c4c2=O)OC(C)C3)cc1 (stereo unspecified)	102	98	92	x
O=C(CC1NC2CCCCC2NC1=O)Nc1cccc(C(F)(F)F)c1 (stereo unspecified)	102	113	105	7
CC1Cn2c(C(=O)NCCc3ccc(Cl)cc3)cc3cccc(c32)S1 (stereo unspecified)	105	111	85	x
O=C(COC(=O)C1CC2C=CC1C2)Nc1ncc(Cl)cc1Cl (stereo unspecified)	x	89	82	-6
Cc1ccc(NC(=O)CN2C(=O)CSc3ccc(S(=O)(=O)N(C)C)cc32)c(C)c1	100	99	92	x
O=C(Nc1ccccc1)c1cccc(S(=O)(=O)NCCC23CC4CC(CC(C4)C2)C3)c1	x	91	81	-6
Cc1ccc2onc(CC(=O)N3CCN(c4ccc(Cl)cc4)CC3)c2c1	99	70	71	-12
CC1=C/C(=N\NC(=S)Nc2cc(C)ccc2C)CC1	x	80	89	-26
CC(O)CNCc1ccc2c(c1)OCO2 (stereo unspecified)	101	91	101	12
More results follow.
SMILES	GIV-Gai inh	Sa growth inh	Sa growth inh second temp	HCMV NEC inh
CC(C)c1nc(=S)c2ccccc2[nH]1	99	111	81	-50
Cc1ccc(Cl)cc1N1CCN(C(=O)c2[nH]c(C)c(S(=O)(=O)N3CCOCC3)c2C)CC1	105	x	x	-5
O=C(Oc1cccc(Cl)c1Cl)c1ccncc1	x	103	94	2
CCn1c(C(=O)NC2CCCC2)cc2sc(Cl)cc21	100	93	83	-24
NN1C(=O)c2ccccc2NC1C1CC=CCC1 (stereo unspecified)	108	90	101	8
Cc1nnc2n1NC(c1ccccc1)C(C(=O)NCc1ccco1)S2 (stereo unspecified)	100	87	87	-12
CC(C(=O)O)N1C(=O)/C(=C/c2ccco2)SC1=S (stereo unspecified)	75*	117	79	-66
CCn1c(C)c(C)c2cc(C(=O)NCCc3cc(OC)ccc3OC)ccc21	106	98	90	x
O=C(CSc1ccc(-c2cccs2)nn1)Nc1ccccc1	101	134	94	x
O=C(NCC(=O)N1CCN(Cc2ccccc2)CC1)c1ccc(Cl)c(Cl)c1	x	117	94	0
Cn1c(SCC(=O)NCc2ccccn2)nc2sc3c(c2c1=O)CCCC3	99	x	x	0
CC(C)c1ccc(C(=O)Nc2cc(-c3ccccc3F)nn2-c2ccccc2)cc1	103	96	99	x
Cc1nn(CC(=O)NC2CCCc3ccccc32)c(=O)c2cc3sccc3n12 (stereo unspecified)	113	102	89	0
CN=c1scc(-c2ccc3c(c2)NC(=O)CO3)n1/N=C/c1ccc(C#N)cc1	x	94	90	-12
Cc1cc(S(=O)(=O)N2CCC(c3nc4c(nnn4Cc4ccc(F)cc4)c(=O)[nH]3)CC2)ccc1-n1cnnn1	102	146	78	1
O=C1C2=C(Nc3ccccc3SC2c2ccc(C(F)(F)F)cc2)c2ccccc21 (stereo unspecified)	110	85	88	-13
CC1=C(C(N)=O)C(c2ccccc2)n2nc(-c3ccccc3)nc2N1 (stereo unspecified)	105	89	44	x
CCCn1c(=O)oc2cc(NS(=O)(=O)c3ccc4[nH]c(=O)[nH]c4c3)ccc21	103	x	x	7
COc1ccc(CCNC(=O)CN2C(=O)C(C)=C(c3ccc(C)c(C)c3)S2(=O)=O)cc1OC	100	x	x	-37
CCc1cc(-c2nn(CN3CCOCC3)c(C)c2-c2nc3ccccc3n2C)c(O)c(CN2CCOCC2)c1O	x	105	89	-10
CCC(C)(C(=O)NC1CCCC1)N(C(=O)c1ccccn1)c1ccc(C)cc1 (stereo unspecified)	105	113	93	-2
O=C(NCc1ccccc1Cl)C1=Cc2cc(Br)ccc2OC1	108	115	104	x

Rows were taken by chance; about 0.79% have a hit in one of these screens.
